Rce1 inhib: yeast Ras-converting enzyme inhibition | yeast membranes, quenched prenylated peptide cleavage fluorescence | AID 2563 | Q03530 | 290,000 tested, 0.27% active | calls only;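 active = fall in fluorescence gain of 50% or more versus controls, with final raw signal at or below 3038400; inconclusive = same 50% fall but final raw signal above 3038400; inactive = fall in fluorescence gain under 50%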;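 also: plate controls were neutral control wells for no effect and wells lacking membranes for full effect; tested at 10 µM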
Target sequence (Q03530 whole entry, looked up): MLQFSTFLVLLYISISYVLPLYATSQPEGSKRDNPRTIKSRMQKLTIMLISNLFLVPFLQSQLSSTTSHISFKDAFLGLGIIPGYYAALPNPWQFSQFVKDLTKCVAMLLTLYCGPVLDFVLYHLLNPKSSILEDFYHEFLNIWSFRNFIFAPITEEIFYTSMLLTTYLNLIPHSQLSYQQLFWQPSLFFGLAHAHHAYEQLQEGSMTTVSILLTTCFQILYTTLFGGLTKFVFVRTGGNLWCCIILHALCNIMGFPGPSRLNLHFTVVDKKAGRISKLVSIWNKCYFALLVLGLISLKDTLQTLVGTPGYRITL
HIV Env fusion: inhibitors of HIV Env-mediated cell fusion | HeLa-JRFL Env/CEM21 cell fusion, luciferase | inhibition, % at 12.3 µM | 360,000 tested, 1.1% active | AID 651610;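 active = mean replicate inhibition score of at least 50 and every replicate individually at or above 50; inconclusive = only one of the two criteria met; inactive = mean below 50 and not all replicates reaching 50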;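 also: 0% = plate neutral controls and 100% = maraviroc near 300 nM; one replicate is shown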
MT1-MMP act inh: MT1-MMP (human) activation inhibition | P50281 | HT1080 RFP-PRO-GFP cells, GFP/RFP ratio fluorescence, overnight; percent of plate control window, DMSO zero | GFP/RFP ratio change, % at 20 µM | 360,000 tested, 0.061% active | AID 651647;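 active = GFP/RFP ratio change of at least 30% with cell ATP level not reduced by more than half and red fluorescence within 50% of control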; also: strong numbers were not always called active
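Compound: 20 µM single dose, 1% DMSO / System: HT1080 RFP-PRO-GFP cells / Controls: DMSO and RFP-L50D-GFP cell wells / Read-out basis: GFP/RFP fluorescence ratio / Schedule: overnight compound exposure at 37 °C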
PABP polyA inh: blocks human PABP binding to poly(A) RNA; inhibition, % at 35 µM; fluorescence polarization; 290,000 tested, 1% active; P11940;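 active = 50% or more with normal probe brightness, or confirmed in later tests; inconclusive = above 50% with abnormal brightness, or retests that disagree; inactive = below 50% or failed in later tests; about a fifth of its hits are not listed in these tables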;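 also: calls also rest on retests at 20 µM and on dose response follow-up; controls were probe without protein and protein plus probe with vehicle; some compounds called inactive have numbers as strong as hits; many hits fall short of the cut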
Target sequence (P11940 whole entry, looked up): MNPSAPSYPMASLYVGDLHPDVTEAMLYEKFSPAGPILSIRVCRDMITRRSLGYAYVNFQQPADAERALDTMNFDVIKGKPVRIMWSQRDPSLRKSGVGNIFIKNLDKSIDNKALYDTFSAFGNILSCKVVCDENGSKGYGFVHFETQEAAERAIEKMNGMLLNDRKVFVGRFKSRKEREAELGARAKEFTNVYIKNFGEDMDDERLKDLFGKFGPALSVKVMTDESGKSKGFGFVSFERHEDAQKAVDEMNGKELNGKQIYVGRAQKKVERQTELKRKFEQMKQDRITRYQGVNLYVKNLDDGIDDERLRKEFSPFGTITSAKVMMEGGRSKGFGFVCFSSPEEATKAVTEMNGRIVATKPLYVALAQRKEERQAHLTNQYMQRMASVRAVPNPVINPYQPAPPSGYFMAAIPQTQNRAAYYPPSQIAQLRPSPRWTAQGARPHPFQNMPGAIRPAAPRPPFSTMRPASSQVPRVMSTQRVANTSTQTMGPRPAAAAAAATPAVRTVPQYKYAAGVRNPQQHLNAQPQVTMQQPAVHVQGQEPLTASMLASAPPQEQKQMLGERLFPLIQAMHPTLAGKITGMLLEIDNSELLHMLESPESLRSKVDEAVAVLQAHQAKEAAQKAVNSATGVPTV
CSC inhib: cancer stem cell inhibition | cancer stem cell-like cells viability, luminescence | inhibition, % at 7.5 µM | 300,000 tested, 1.1% active;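 active = mean at 75% or more and at least half the replicates too; inconclusive = mean and replicates disagree; tested in HMLE shEcad cells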;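 also: 0% = median of negative and 100% = median of positive control wells; the first replicate is given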
eIF4H inh: inhibitors of RNA binding by human eIF4H; Q15056; eIF4H fluorescence polarization binding assay; inhibition, % at 35 µM; 290,000 tested, 0.94% active; AID 2012;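 active = 50% or more with normal probe brightness, or confirmed in later tests; inconclusive = above 50% with abnormal brightness, or retests that disagree; inactive = below 50% or failed in later tests; about a fifth of its hits are not listed in these tables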;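 also: calls also rest on retests at 20 µM and on dose response follow-up; 0% = protein and probe with vehicle and 100% = probe without protein; strong numbers were not always called active; many hits fall short of the cut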
UUG fidelity: yeast start codon fidelity modulation. S. cerevisiae UUG-firefly luciferase reporter, luminescence/redox ratio. activity score, % at 18.7 µM. 350,000 tested, 0.13% active. AID 602363;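 active = replicate mean at a twofold rise or more, about +100% in these data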;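 also: firefly luciferase made from a UUG start codon reports start codon fidelity; reporter light over untreated wells divided by growth signal over untreated wells; some hits fall short of that in this replicate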
eIF4H inh retest: second read-out of eIF4H inh, no call of its own (marks repeat the call); inhibition, %; compound at 20 µM; confirmation average;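 mean of two retest wells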
PABP polyA inh retest: recorded beside PABP polyA inh, whose call it bears; inhibition, %; compound at 20 µM; confirmation repeats;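 mean of two retest wells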
MT1-MMP act inh RFP: second read-out of MT1-MMP act inh, no call of its own (marks repeat the call); RFP signal change, %; measured here: RFP expression control read;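 0 = vehicle wells; hits needed this value within 50% of zero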
An asterisk follows results filed as active; i = inactive; ? = inconclusive; nt = no result given; & = joins results of further samples. Only part of the results is shown, so the mix of outcomes need not match the whole.

SMILES	Rce1 inhib	HIV Env fusion	MT1-MMP act inh	MT1-MMP act inh RFP	PABP polyA inh	CSC inhib	eIF4H inh	UUG fidelity	others
CP(=O)(O)CN1CCCCC1	i	6	3	3	9	nt	-6	nt
O=C1NC(=O)N(Cc2ccccc2)C(=O)/C1=C\c1ccco1	i	-55	-12	30	6	8	?	nt
CCC(C)n1c(O)c(C=NCc2cccnc2)c(=O)[nH]c1=S (stereo not given)	i	5	-3	-2	-2	nt	-9	nt
O=c1ccc2cc(O[C@@H]3O[C@@H](CO)[C@H](O)[C@@H](O)[C@@H]3O)c(O)cc2o1	?	0	11	5	-5	12	-1	9
N#Cc1ccc(NC(=S)N2Cc3ccccc3-n3nncc3C2)cc1	nt	43	-2	-7	nt	nt	nt	-23
Cn1c(O)c(C=NCCCCCCCCCCC(=O)O)c(=O)n(C)c1=O	i	19	-2	4	-1	1	-2	-5
O=C(c1ccc(N2CC3CC(C2)c2cccc(=O)n2C3)c([N+](=O)[O-])c1)N1CCCCC1 (stereo not given)	i	-11	-2	3	1	1	1	nt
O=P(O)(Oc1ccccc1)c1ccccc1	nt	0	-1	1	nt	nt	nt	-27
COc1cccc(C(=O)C2CCCN(Cc3cccc(C)n3)C2)c1 (stereo not given)	i	-2	-3	-2	16	2	-1	nt
NC(=O)C1CCN(/C=C2\C(=O)NC(=O)N(Cc3ccco3)C2=O)CC1	i	-14	-8	6	20	1	27	-10
C1CCCN(C2CCNCC2)CC1	i	7	-3	-2	39	6	1	-13
COc1cccc(C(=O)N2CCC3(CC2)OCCO3)c1	i	15	1	0	-8	-14	-1	-4
COC(=O)[C@H]1C[C@@H]1[C@H](NP(=O)(c1ccccc1)c1ccccc1)c1ccccc1	i	-13	1	7	67	15	4	-15	eIF4H inh retest=1;PABP polyA inh retest=-4
Nc1c([N+](=O)[O-])cc(F)c(N2CCNCC2)c1Br	i	1	-6	-3	-7	nt	-6	-15
CSc1nc2ccccc2c(=O)n1-c1cccnc1	i	2	-2	2	8	-3	3	nt
CCOC(=O)c1c(C)n(Cc2ccc3c(c2)OCO3)c2ccc(O)cc12	i	22	-10	-7	-8	-5	6	-5
Cc1ccc(CN2Cc3ccc(Br)cc3-n3nncc3C2)cc1	nt	-3	1	-4	nt	nt	nt	-2
Nc1cc(Cl)cc(Cl)c1	nt	nt	-4	2	nt	-8	nt	4
Cn1c(O)c(C=NCCN2CCNCC2)c(=O)[nH]c1=O	i	7	1	3	11	-20	-2	-25
Cc1cnn(C2CCN(C)CC2)c1N	i	-19	-5	-2	5	-14	5	-10
C[C@]12CC[C@H](O)CC1=CC(=O)C1C2CC[C@]2(C)C(=O)[C@H](O)CC12 (stereo not given in full)	nt	6	4	-2	nt	12	nt	-2
CC12CCC3C(CC=C4CC5(CCC43C)OCCO5)C1CCC2=O (stereo not given)	i	-1	-1	-10	-4	-18	5	-10
CCC1(CCc2ccncc2)C(=O)NC(=O)NC1=O	i	-3	-1	1	-8	nt	8	-5
C[C@H](O)[C@H]1CC[C@H]2[C@@H]3CCC4=CC(=O)CC[C@]4(C)[C@H]3CC[C@]12C	i	nt	-1	-9	9	-7	-4	-32
CCOP(=O)(C(NC(=O)c1ccccc1Cl)=C(Cl)Cl)c1ccccc1 (stereo not given)	i	-6	8	3	6	-2	-4	22

Compounds listed so far that contain sulfur (three):
SMILES	Rce1 inhib	HIV Env fusion	MT1-MMP act inh	MT1-MMP act inh RFP	PABP polyA inh	CSC inhib	eIF4H inh	UUG fidelity	others
CCC(C)n1c(O)c(C=NCc2cccnc2)c(=O)[nH]c1=S (stereo not given)	i	5	-3	-2	-2	nt	-9	nt
N#Cc1ccc(NC(=S)N2Cc3ccccc3-n3nncc3C2)cc1	nt	43	-2	-7	nt	nt	nt	-23
CSc1nc2ccccc2c(=O)n1-c1cccnc1	i	2	-2	2	8	-3	3	nt

Compounds from the list above containing a nitro group on carbon:
SMILES	Rce1 inhib	HIV Env fusion	MT1-MMP act inh	MT1-MMP act inh RFP	PABP polyA inh	CSC inhib	eIF4H inh	UUG fidelity	others
O=C(c1ccc(N2CC3CC(C2)c2cccc(=O)n2C3)c([N+](=O)[O-])c1)N1CCCCC1 (stereo not given)	i	-11	-2	3	1	1	1	nt
Nc1c([N+](=O)[O-])cc(F)c(N2CCNCC2)c1Br	i	1	-6	-3	-7	nt	-6	-15

Continued.
SMILES	Rce1 inhib	HIV Env fusion	MT1-MMP act inh	MT1-MMP act inh RFP	PABP polyA inh	CSC inhib	eIF4H inh	UUG fidelity	others
N=C1c2ccccc2CN1NC(=O)C1CC1	i	nt	-4	3	-13	-9	-8	nt
CC(=NCc1ccc2c(c1)OCO2)c1c(O)n(C)c(=O)n(C)c1=O	i	-43	-2	-3	1	37	-1	-11
CN1CCN(c2nccc3c2ncn3C)CC1	i	-13	-4	-4	7	-3	4	-12
CC(=O)OC1N=C(c2ccccc2)c2cc(C)ccc2NC1=O (stereo not given)	i	nt	-1	-1	-6	0	-13	-14
C#C[C@]1(O)CCC2C3CCC4=C/C(=N/OCC(=O)NC(C)C(=O)NC(CCSC)C(=O)O)CC[C@]4(C)C3CC[C@@]21C (stereo not given in full)	i	-6	3	1	13	-14	-4	14
O=C(CN1CCCC1=O)N1CCOCC1	i	-25	-3	4	-10	-4	-10	-13
COC(=O)C1=C(c2ccccc2OCc2ccccc2)C[C@@H]2CC[C@H]1N2C(=O)NCc1ccccc1	nt	-28	-4	-7	nt	24	nt	-12
CON(C)C(=O)Nc1ccc(Cl)cc1	i	-22	7	8	1	-9	-3	-13
c1ccc(C2CC2)c(OCC2=NCCN2)c1	nt	6	10	-1	nt	-7	nt	-6
O=C(COc1ccc(Br)cc1)N1CCN(Cc2c[nH]c3ccccc23)CC1	i	nt	-3	-6	-4	7	12	-8
CC(C)OP(=O)(O)NC(=O)c1ccccc1	i	9	3	5	10	-12	35	nt
Cn1cc(C(=O)NC2CC2)c2ccccc21	i	-4	-2	0	14	-13	-10	1
COC(=O)C1=C(c2ccc(S(C)(=O)=O)cc2)C[C@@H]2CC[C@H]1N2C(=O)NCc1ccccc1	i	17	-1	1	nt	-20	nt	-11
Cc1ccc(CC(=O)N2CCN(C)CC2)cc1	i	-8	0	2	2	-6	-6	-8
CCOP(=O)(OCC)C(O)c1ccc(Br)cc1 (stereo not given)	i	nt	-1	1	-19	nt	5	nt
CCOP(=O)(OCC)C(NC(=O)CN1C(=O)c2ccccc2S1(=O)=O)C(Cl)(Cl)Cl (stereo not given)	i	6	-2	6	-11	7	-6	nt
COc1ccc2c(c1)[nH]c1c(C)nccc12	nt	11	-10	-4	nt	12	nt	-5
O=[N+]([O-])c1ccccc1CNCCc1ccc(F)cc1	i	nt	1	0	14	-7	-1	-6
Oc1ccc(Cl)c(Cl)c1	nt	nt	-1	5	nt	2	nt	-26
O=C(CN1CC(c2ccccc2)CC1=O)NCc1ccc(F)cc1 (stereo not given)	i	-6	5	3	4	16	2	3
COc1cc(O)cc2c1C(=O)O[C@@H](C)CCCC(=O)CCCCC2	i	4	8	6	-12	0	0	-14
COC(=O)C1=C(c2ccc(Cl)c(C(F)(F)F)c2)C[C@@H]2CC[C@H]1N2C	nt	-9	1	5	nt	-11	nt	-22
CCCCCCC[n+]1ccc(-c2cc[n+](CCCCCCC)cc2)cc1	i	6	2	-8	10	0	6	2
C=CCN1CC[C@]23c4c5ccc(O)c4OC2C(=O)CC[C@@]3(O)C1C5 (stereo not given in full)	i	nt	3	8	10	-13	-8	-15
CCOc1ccc2nc(N=Nc3c(O)[nH]c(=O)[nH]c3=O)sc2c1	i	-28	27	6	1	-7	-16	-6

Part of the list above in order of length of the SMILES, falling.
SMILES	Rce1 inhib	HIV Env fusion	MT1-MMP act inh	MT1-MMP act inh RFP	PABP polyA inh	CSC inhib	eIF4H inh	UUG fidelity	others
CCOP(=O)(OCC)C(NC(=O)CN1C(=O)c2ccccc2S1(=O)=O)C(Cl)(Cl)Cl (stereo not given)	i	6	-2	6	-11	7	-6	nt
CCCCCCC[n+]1ccc(-c2cc[n+](CCCCCCC)cc2)cc1	i	6	2	-8	10	0	6	2
Oc1ccc(Cl)c(Cl)c1	nt	nt	-1	5	nt	2	nt	-26

Four records picked at random from those above, as already listed:
SMILES	Rce1 inhib	HIV Env fusion	MT1-MMP act inh	MT1-MMP act inh RFP	PABP polyA inh	CSC inhib	eIF4H inh	UUG fidelity	others
O=[N+]([O-])c1ccccc1CNCCc1ccc(F)cc1	i	nt	1	0	14	-7	-1	-6
c1ccc(C2CC2)c(OCC2=NCCN2)c1	nt	6	10	-1	nt	-7	nt	-6
Oc1ccc(Cl)c(Cl)c1	nt	nt	-1	5	nt	2	nt	-26
COc1ccc2c(c1)[nH]c1c(C)nccc12	nt	11	-10	-4	nt	12	nt	-5

The list continues.
SMILES	Rce1 inhib	HIV Env fusion	MT1-MMP act inh	MT1-MMP act inh RFP	PABP polyA inh	CSC inhib	eIF4H inh	UUG fidelity	others
Cc1cc(Oc2ccc(C(F)(F)F)cc2[N+](=O)[O-])c2c3c(c(=O)oc2c1)CCCC3	i	nt	0	-3	8	-7	0	nt
COc1cc(CC2(CCc3ccncc3)C(=O)NC(=O)NC2=O)cc(OC)c1OC	i	7	5	2	-1	-13	1	nt
COc1ccc(-n2nc(C(=O)NCC(=O)N3CCC4(CC3)OCCO4)c3ccccc3c2=O)c(OC)c1	i	-27	-3	4	-4	1	-11	-6
CN1C(=O)c2ccccc2NC(=O)C1Cc1ccccc1 (stereo not given)	i	nt	-1	0	6	-9	19	-23
CC(=O)N1N=C2C3CCN(CC3)C2C1c1ccc(C)cc1 (stereo not given)	i	-3	0	1	3	-8	-2	-18
CCOc1ccccc1CN1CCCC(C(=O)c2cc(F)ccc2F)C1 (stereo not given)	i	-7	-3	2	1	11	0	-15
CN1CCN(c2c(F)cc([N+](=O)[O-])c(N)c2Br)CC1	i	-18	-3	-2	2	-2	1	-9
O=C(c1cc(-c2cccnc2)nc2ccccc12)N1CCC2(CC1)OCCO2	i	-21	-3	1	-9	-3	-11	-13
CSc1nc(Cl)c(Br)c(N2CC2)n1	nt	5	1	3	nt	nt	nt	-5
COc1ccc(-n2c(O)c(C(C)=NCc3ccco3)c(=O)[nH]c2=O)cc1	i	-53	0	9	-1	-9	-10	-4
CCOC(=O)C(O)(c1ccc(N)c(OC)c1)C(F)(F)F (stereo not given)	i	nt	3	8	1	-3	8	nt
O=[N+]([O-])/C=C1\NCCN1Cc1ccc(Cl)nc1	i	-7&-8	-1&1	0&5	-3&-4	-11&-11	-3&0	-8
Cc1ccccc1-n1c(C)nc2sccc2c1=O	i	14	-8	5	1	-8	6	-18
COc1ccc(N2C(=O)NC(=O)/C(=C\c3ccc([N+](=O)[O-])s3)C2=O)cc1	i	-9	16	70	2	6	46	nt
c1ccc(N2Cc3ccccc3-n3nncc3C2)nc1	nt	-9	1	1	nt	nt	nt	-21
O=C(c1cc(-c2ccncc2)nc2ccccc12)N1CCC2(CC1)OCCO2	nt	-33	1	0	-5	-7	-7	-6
N=C1c2ccccc2CN1c1cccc([N+](=O)[O-])c1	i	1	2	5	4	-12	-8	nt
Cc1cc(C(=O)CN2CCCC2)c(C)n1-c1ccc(F)cc1	i	-97	-2	-1	5	-5	13	14
O=C1NC(=S)N(c2ccccc2)C(=O)C1C(c1ccncc1)C1C(=O)NC(=S)N(c2ccccc2)C1=O (stereo not given)	i	9	0	6	-7	-11	8	nt
CC(C)(C)P(=O)(c1ccncc1)N1CCCC1 (stereo not given)	i	nt	2	1	-13	-20	1	4
